VDR inh – blocks the human vitamin D receptor. Potency, µM, inactives show max response, negative = inhibition, actives largely listed as inhibitors. 400,000 tested, 0.93% active. P11473. VDR-SRC2-3 peptide fluorescence polarization, 2 h; active = well fitted inhibition curve with a large enough effect; inconclusive = small, poorly fitted or top-dose-only effect, or another doubt; inactive = no such curve, though single readings can be large or run the other way; note: series mostly up to about 120 µM
Target sequence (P11473 whole entry, looked up): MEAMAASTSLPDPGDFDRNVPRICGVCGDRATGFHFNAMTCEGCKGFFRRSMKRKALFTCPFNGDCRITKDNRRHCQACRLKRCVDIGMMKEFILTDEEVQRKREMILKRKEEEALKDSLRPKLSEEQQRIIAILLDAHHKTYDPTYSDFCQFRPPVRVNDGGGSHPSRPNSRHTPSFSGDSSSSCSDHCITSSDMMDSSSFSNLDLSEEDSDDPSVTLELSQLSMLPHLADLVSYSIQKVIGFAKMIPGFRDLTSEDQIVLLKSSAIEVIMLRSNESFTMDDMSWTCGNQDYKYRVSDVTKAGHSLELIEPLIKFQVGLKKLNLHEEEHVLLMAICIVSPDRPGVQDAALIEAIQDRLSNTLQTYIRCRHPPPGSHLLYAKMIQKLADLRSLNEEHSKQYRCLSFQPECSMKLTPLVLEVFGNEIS
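Inhibition of the VDR/SRC2-3 peptide interaction is quantified by fluorescence polarization. Compounds (23 nl, pintool) incubate with the reagents for 2 hours at ambient room temperature.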
* hit, by the source's call; ? = inconclusive; & = joins results of further samples. % is set by controls: 0 for no effect and ±100 for the full control effect; potency is the fitted concentration of half-maximal effect. This is a subset, so the mix of outcomes need not match the whole.

SMILES	VDR inh
CCC1(C(=O)c2ccc(C)cc2)C2c3ccccc3OC(=O)C21C(=O)O (configuration not stated)	6%
O=[N+]([O-])c1ccc(N2CCCC(C(F)(F)F)C2)c2ccncc12 (configuration not stated)	-24%
Cc1ccc(C(C)C)c(OCC(=O)N2CCN(Cc3nc4cc([N+](=O)[O-])ccc4n3C)CC2)c1	-15%
Cc1cccc(CN2CCCC(C(=O)c3cccc(OC(C)C)c3)C2)n1 (configuration not stated)	8%
COC(=O)C1=C(c2c(C)noc2C)C[C@@H]2CC[C@H]1N2C(=O)N1CCCC1	8%
COC(=O)c1ccc(CC(C(=O)c2ccccc2)N(C)C)cc1 (configuration not stated)	-2%
CC1(C)CCCN1CCC(C(N)=O)(c1ccccc1)c1ccccc1	-4%
CC(=NCc1cccnc1)c1c(O)n(-c2ccccc2C)c(=O)[nH]c1=O	-4%
CCOc1ccc(C2SCC(=O)Nc3c2c(C)nn3C2CCOC(C)(C)C2)cc1 (configuration not stated)	1%
COc1cc2c(c(OC)c1OC)-c1ccc(O)c(=O)cc1[C@@H](NC(C)=O)CC2	-17%
CCOc1cccc(=NC2CCCCC2)c2c(C)n(C)c(C)c12	-5%
Cc1cc(Cc2c(O)[nH]c(=S)[nH]c2=O)ccc1OC(C)C	79µM*
Cc1nc2cc(C(F)(F)F)ccc2n1C1CCN(Cc2nnnn2Cc2ccc3c(c2)OCO3)CC1	-4%
Fc1ccc(C2NCCc3[nH]cnc32)cc1 (configuration not stated)	-8%
CN1CCN(c2nc(N)cc(=O)[nH]2)CC1	0%
CCCc1nc(SC)ncc1C(=O)Nc1ccc(Cl)cc1C(=O)c1ccccc1	10%
CCOC(=O)CN1C(=O)C2(C(C#N)=C(N)Oc3ccccc32)C(C(=O)OC)=C1C (configuration not stated)	10%
CCC(C)N1CCN(C(=O)Cc2ccccc2)CC1 (configuration not stated)	18%
CC(=O)C1CCC2C3CCC4CC(O)CCC4(C)C3CC(O)C12C (configuration not stated)	5%
CCCNC(=O)N1[C@H]2CC[C@@H]1C(C(=O)OC)=C(c1ccc(F)cc1F)C2	2%
CCCCN1C(=O)NC(=O)C2(Cc3c(nc4c(C)cccn4c3=O)N3CCc4ccccc4C32)C1=O (configuration not stated)	-6%
COc1ccc(C(C)=O)cc1CC(C(=O)c1ccc(C)cc1)N(C)C (configuration not stated)	-5%
CCCCC/C=C\C/C=C\C/C=C\C/C=C\CCCCOC(CO)CO	-7%
O=c1oc2ccccc2c(O)c1C(c1ccccn1)c1c(O)c2ccccc2oc1=O	?
c1ccc(Cc2nn3c(Cn4cnc5ccccc54)nnc3s2)cc1	?

Overlap with the part before: two entries, then new ones.
SMILES	VDR inh
O=c1oc2ccccc2c(O)c1C(c1ccccn1)c1c(O)c2ccccc2oc1=O	?
c1ccc(Cc2nn3c(Cn4cnc5ccccc54)nnc3s2)cc1	?
CC1CCN(CC#CCOc2ccc(Cl)cc2)CC1	-18%
COc1ccc(CCNCc2ccccc2F)cc1	-8%
Cc1nc2cc(-c3ccc(Cl)cc3)nn2c(C)c1CCC(=O)N1CCC2(CC1)OCCO2	-13%
Cc1ccc(C2=NC(C)(C)N3C2C3c2ccc([N+](=O)[O-])cc2)cc1 (configuration not stated)	-17%
CC[N+](C)(CC)CCCOC(=O)C(O)(c1ccccc1)C1CCCCC1 (configuration not stated)	-19%
CCC(C)C1(CC)C(=O)NC(=O)N=C1N (configuration not stated)	21%
CC(=O)C1(c2ccccc2)CCN(C(=O)C2CCC(=O)N(CCc3cccc(F)c3)C2)CC1 (configuration not stated)	-2%
CC(=O)OC1C(=O)[C@]2(C)C(O)CC3OC[C@]3(OC(C)=O)C2[C@@H](OC(=O)c2ccccc2)[C@]2(O)CC(O)C(C)=C1C2(C)C (some centres not stated)	13%
CCCCc1ccc(NC2=NCCCS2)cc1	-3%
CN1CC(C(=O)c2ccc(Cl)cc2)C(c2ccc(N(C)C)cc2)C1 (configuration not stated)	12%
CC[C@@]1(c2ccc(N)cc2)CCC(=O)NC1=O	10%
CCOc1cc(CNCCc2c[nH]c3ccccc23)cc(Cl)c1OC	-4%
NCCc1ccc(S(N)(=O)=O)cc1	-1%
C[C@]12CCC3C(CC[C@H]4C[C@@H](O)CC[C@]34C)C1CCC2=O (some centres not stated)	-2%
CCCC1(CCC)C(=O)NC(=Nc2ccccc2)NC1=O	2%
CC(C)OC(=O)C1C2c3ccccc3C(c3ccccc32)C1C(=O)O (configuration not stated)	7%
NP(=O)(OCCCc1ccccc1)c1ccccc1 (configuration not stated)	12%
COc1ccc2[nH]c(C)c(CCNCc3cn(C)c4ccccc34)c2c1	4%
O=C1NC(=O)C2(Cc3ccccc3N3CCCC32)C(=O)N1c1ccc(Cl)cc1 (configuration not stated)	-12%
CN(C)c1ccc(C(=O)c2ccc(N(C)C)cc2)cc1	-13%
N#C[C@H](O[C@@H]1O[C@H](CO[C@@H]2O[C@H](CO)[C@@H](O)[C@H](O)[C@H]2O)[C@@H](O)[C@H](O)[C@H]1O)c1ccccc1	-7%
CCOP(=S)(OCC)Oc1ccc(Cl)cc1Cl	50µM*
O=C1CC(c2cccnc2)=NN1c1ccccc1	4%
COC1=C(C)C(=O)C2=C(C1=O)C(CO)N1C(C#N)C3CC4C(C1C2N1CCOC41)N3C (configuration not stated)	-13%
COC(=O)C1=C(c2ccccc2OCc2ccccc2)C[C@@H]2CC[C@H]1N2C(=O)NCc1ccc(C(C)(C)C)cc1	-10%

(more compounds)
SMILES	VDR inh
CC(Cc1ccccc1)NC(=O)Cc1ccc([N+](=O)[O-])cc1 (configuration not stated)	-3%
COC(=O)C1=C(c2ccc(OC)c(OC)c2)C[C@@H]2CC[C@H]1N2C(=O)NCCOc1ccc(OC)cc1	14%
O=c1[nH]c(O)c(N=Nc2ccc3c(c2)OCCO3)c(=O)[nH]1	21%
c1cncc(C2CC(c3cccs3)n3ncnc3N2)c1 (configuration not stated)	0%
Nc1ccc(CCN2CCCC2)cc1	-9%
CCCCC/C=C\C/C=C\C/C=C\CCCCCCC(=O)NCCO	1%&11%&-6%
N#CC1c2ccccc2-n2nncc2CN1S(=O)(=O)c1ccccc1 (configuration not stated)	-11%
CCCCn1c(=O)c(C(=O)NCc2ccco2)c(O)c2ccccc21	6%
CN1CCCN(C(=O)COc2ccccc2Br)CC1	0%
CCCCCCCSc1cc(OC)c(CCNC)cc1OC	18%
C=CCN1CCC23c4c5ccc(O)c4O[C@H]2C(=O)CC[C@@]3(O)C1C5 (some centres not stated)	4%&0%
CCCCCCC(=O)CCCCCC/C=C/C[C@@H](O)[C@H](O)[C@@](N)(CO)C(=O)O	1%&5%
COc1cccc(-n2c(O)c(C=NCCN3CCNCC3)c(=O)[nH]c2=S)c1	8%
COC(=O)C1=C(c2cc3ccccc3o2)C[C@@H]2CC[C@H]1N2C(=O)NCc1ccccc1	-29%
FC(F)(F)c1cccc(C2NCc3ccccc3-n3cccc32)c1 (configuration not stated)	13%
CCOC(=O)C(NC(C)=O)C(OC(C)=O)c1cccc(N(CCCl)CCCl)c1 (configuration not stated)	-4%
C[C@]12CCC(=O)CC1CCC1C2CC[C@]2(C)C(OC(=O)CCC(=O)O)CCC12 (some centres not stated)	-16%
Cc1cccnc1NC1=NCC(C)S1 (configuration not stated)	-6%
O/N=C/c1c[nH]c2ccccc12	-2%
CCCC1C(C#N)=C(N)Oc2c1c(=O)oc1ccccc21 (configuration not stated)	-6%
CO[C@H]1C=C2CCN(C)[C@H]2C2c3cc4c(cc3C(=O)O[C@@H]21)OCO4 (some centres not stated)	-12%
COc1ccc(OC)c(C(O)C2CCCCN2)c1 (configuration not stated)	-7%
O=C1CC(=O)N(c2ccc(Cl)cc2Cl)C(=O)N1	-21%
O=C1CN=C(c2ccccc2F)c2cc(Cl)ccc2N1	-28%
Cc1ccc(CS(=O)(=O)Cc2ccc(C(=O)N3CCC4(CC3)OCCO4)o2)cc1	12%

(continued)
SMILES	VDR inh
CSc1ccccc1C(=O)C1CCCN(Cc2ccccn2)C1 (configuration not stated)	1%
c1ccc(N2CCCC3(CCNCC3)C2)cc1	?
Cc1ccccc1-n1c(O)c(/C=N/NC(=O)c2ccncc2)c(=O)[nH]c1=O	-9%
C=CCn1c(O)c(C(CC)=NCCc2c[nH]c3ccccc23)c(=O)[nH]c1=O	0%
O=C(O)c1cccc(NC(=O)N2C[C@H]3C[C@@H](C2)c2cccc(=O)n2C3)c1	12%
Clc1cccc(CN2CCCCC2c2cccnc2)c1 (configuration not stated)	10%
COC(=O)C(C)Oc1cc(C)cc2oc(=O)c3c(c12)CCC3 (configuration not stated)	0%
CNCCc1cnc[nH]1	-6%&5%&19%
N#CC(c1cccnc1)N1CCOCC1 (configuration not stated)	14%
NS(=O)(=O)OC(CCc1ccccc1)C(Cl)(Cl)Cl (configuration not stated)	16%
Nc1c(C(=O)Nc2ccc(Cl)cc2)sc2nc3c(cc12)N1CCC3CC1	1%
O=C1NC2NC(=O)N([N+](=O)[O-])C2N1 (configuration not stated)	4%
CCCCCCC(=O)O[C@H]1CC[C@H]2[C@@H]3CCC4CC(=O)C=C(C)[C@]4(C)[C@H]3CC[C@]12C (some centres not stated)	-18%
COC(=O)C1=C(c2ccc(OC(F)(F)F)cc2)C[C@@H]2CC[C@H]1N2C(=O)NCCOc1ccc(OC)cc1	3%
CC[C@@]1(O)C(=O)OCc2c1cc1n(c2=O)Cc2cc3c(NC(=O)CN)cccc3nc2-1	-5%
CC(=O)Nc1ccc2c(c1)CC1(C(=O)N(C)C(=O)N(C)C1=O)C1CCCN21 (configuration not stated)	4%
CC12CCC3C(CCC4CC(=O)C(C(O)C(F)(F)F)CC43C)C1CCC2O (configuration not stated)	-29%
O=C(c1c[nH]cc1-c1ccccc1)c1cccc2ccccc12	6%
CC(COc1ccccc1)N(CCCl)Cc1ccccc1 (configuration not stated)	?
COc1cc(/C=C2\C(=O)NC(=O)N(c3ccccc3)C2=O)c([N+](=O)[O-])cc1OC	45µM*
CCOP(=O)(CCP(=O)(OCC)OCC)OCC.C[CH2][Sn]([Cl])([Cl])[CH2]C	?
COc1cccc(-n2c(CN3CCN(C)CC3)nc3ccc([N+](=O)[O-])cc3c2=O)c1	-7%
CCC(=NCc1cccnc1)c1c(O)n(Cc2ccccc2)c(=O)[nH]c1=O	2%
[O]=[Sb]([OH])([OH])[c]1ccccc1	79µM*
NC(=O)CI	79µM*

(continued)
SMILES	VDR inh
O=C1C2CCCN2C(c2cccnc2)N1c1ccc(Cl)c(Cl)c1 (configuration not stated)	-1%
Cn1cc(C(=O)OCC(=O)N2CCCCC2)c2ccccc21	-10%
O=C(OC1CCN(CCCl)CC1)C(c1ccccc1)c1ccccc1	-17%
Cc1c(C(=O)C(=O)N2CCOCC2)c2ccccc2n1Cc1ccccc1	-9%
Cn1cccc1C(=O)OCC(=O)NCc1cccs1	?
O=C(Cc1ccccc1)N1CCN(CC2CC=CCC2)CC1 (configuration not stated)	-4%
CNC(=O)Oc1ccccc1C1CCCCC1	6%
CC1OC(NCCc2ccccc2)C(O)C(O)C1O (configuration not stated)	-5%
COc1cccc(-n2c(/C=C/c3cccc(C)c3)nc3ccccc3c2=O)c1	4%
Cc1ccc(OCC(=O)Nc2ccc(Cl)cc2C(=O)c2ccccc2)cc1	-12%&-7%
CCCCCn1c(=O)c(C(=O)Nc2cccc(C)c2)c(O)c2ccccc21	-29%
O=C1NC(=O)C(CCc2ccncc2)(Cc2cccc(Cl)c2Cl)C(=O)N1c1ccc(Br)cc1 (configuration not stated)	-13%
CN1CCC(O)(c2ccccc2)C2CCCC21 (configuration not stated)	?
CCCCCn1c(=O)c(C(=O)Nc2ccccc2C)c(O)c2ccccc21	-8%
CCn1c(O)c(C=NCc2ccccc2)c(=O)[nH]c1=S	-1%
CCOP(=O)(OCC)OCC	14%
COCCCNC(=O)c1c(NC(=O)c2ccco2)n(Cc2ccccc2)c2nc3ccccc3nc12	45µM*
Cc1ccccc1NC(=O)CCl	-27%
C[n+]1c(-c2ccccc2)cc(-c2ccc(O)cc2)cc1-c1ccccc1	-11%
CC(=NCC1CCCO1)c1c(O)n(Cc2ccccc2)c(=O)[nH]c1=O (configuration not stated)	-8%
CCC1=Nc2cc(C(=O)N3CCC4(CC3)OCCO4)ccc2Sc2ccc(Br)cc21	1%

By substructure, those above containing an NH in an aromatic ring (16)
SMILES	VDR inh
CC(=NCc1cccnc1)c1c(O)n(-c2ccccc2C)c(=O)[nH]c1=O	-4%
Cc1cc(Cc2c(O)[nH]c(=S)[nH]c2=O)ccc1OC(C)C	79µM*
Fc1ccc(C2NCCc3[nH]cnc32)cc1 (configuration not stated)	-8%
CN1CCN(c2nc(N)cc(=O)[nH]2)CC1	0%
CCOc1cc(CNCCc2c[nH]c3ccccc23)cc(Cl)c1OC	-4%
COc1ccc2[nH]c(C)c(CCNCc3cn(C)c4ccccc34)c2c1	4%
O=c1[nH]c(O)c(N=Nc2ccc3c(c2)OCCO3)c(=O)[nH]1	21%
COc1cccc(-n2c(O)c(C=NCCN3CCNCC3)c(=O)[nH]c2=S)c1	8%
O/N=C/c1c[nH]c2ccccc12	-2%
Cc1ccccc1-n1c(O)c(/C=N/NC(=O)c2ccncc2)c(=O)[nH]c1=O	-9%
C=CCn1c(O)c(C(CC)=NCCc2c[nH]c3ccccc23)c(=O)[nH]c1=O	0%
CNCCc1cnc[nH]1	-6%&5%&19%
O=C(c1c[nH]cc1-c1ccccc1)c1cccc2ccccc12	6%
CCC(=NCc1cccnc1)c1c(O)n(Cc2ccccc2)c(=O)[nH]c1=O	2%
CCn1c(O)c(C=NCc2ccccc2)c(=O)[nH]c1=S	-1%
CC(=NCC1CCCO1)c1c(O)n(Cc2ccccc2)c(=O)[nH]c1=O (configuration not stated)	-8%

Screening results deposited in PubChem by National Center for Advancing Translational Sciences (NCATS).
